Screening results from PubChem BioAssay.
SARS PLpro yeast: SARS-CoV PLP inhibition in yeast. S. cerevisiae expressing SARS-CoV PLpro, growth rescue; control for the full effect not named in the record. Potency, µM (series often up to 32.9 µM), for inactives: top-dose activity, positive = growth rescue. actives 0.19% (n = 330,000); further: 0% is about no effect; nearly all actives have a fitted effect of over 55% in size; growth read by luminescence after 48 h
Cruzain inh noDet: blocks cruzain activity in detergent-free assay; actives 2.3% (n = 200,000); P25779; purified cruzain, Z-FR-AMC fluorescence, no detergent; Potency, µM, inactives show max response, negative = inhibition, actives largely listed as inhibitors; active means well fitted curve in the direction sought with a large enough effect; inconclusive means small, poorly fitted or top-dose-only effect, or another doubt; inactive means no such curve, though single readings can be large; an effect the other way counts as inactive or inconclusive;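 further: plate controls were enzyme without inhibitor for no effect and buffer without enzyme for full effect; nearly all actives have a fitted effect of over 40% in size; top concentration of the series not given in the record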
Target sequence (P25779 123-467 limits assumed): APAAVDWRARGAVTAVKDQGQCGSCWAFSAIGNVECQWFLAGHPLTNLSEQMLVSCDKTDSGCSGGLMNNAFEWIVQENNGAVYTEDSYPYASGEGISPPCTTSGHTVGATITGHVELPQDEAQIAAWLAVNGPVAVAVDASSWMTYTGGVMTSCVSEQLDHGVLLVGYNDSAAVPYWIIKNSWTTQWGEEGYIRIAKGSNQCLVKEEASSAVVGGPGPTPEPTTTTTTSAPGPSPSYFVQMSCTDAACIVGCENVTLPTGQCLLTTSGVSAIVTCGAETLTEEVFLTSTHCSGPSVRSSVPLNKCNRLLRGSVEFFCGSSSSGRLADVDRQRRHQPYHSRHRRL
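Purified cruzain at 1.5 nM, pre-incubated 15 min with compound at room temperature in 100 mM sodium acetate pH 5.5, 5 mM DTT, 0.00005% Triton X-100. Reaction started with 2 uM Z-FR-AMC; AMC fluorescence increase over 60 s gives rate.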
Lassa entry inh: Lassa virus entry inhibition | Lassa virus pseudotype entry inhibition, cell reporter; control for the full effect not named in the record | AID 540256 | actives 1.2% (n = 300,000) | Potency, µM (titrated, usually from 37.9 µM), for the others: at the top dose activity change, negative = inhibition, usual class: inhibitors; active means well fitted inhibition curve with a large enough effect; inconclusive means small, poorly fitted or top-dose-only effect, or effect the other way; inactive means flat fitted curve, though single readings scatter; tested in HEK293 cells; further: on the % scale 0 is the no-effect control and ±100 the full control effect; nearly all actives have a fitted effect of over 50% in size; luciferase read-out
MARV entry inh: Marburg virus entry inhibition; Marburg virus pseudotyped entry inhibition, cell reporter; control for the full effect not named in the record; about a third of the inactives were read at about 46 µM; Potency, µM (series often up to 37.8 µM), without a hit: at the top dose activity change, negative = inhibition, usual class: inhibitors; actives 1.8% (n = 300,000); AID 540276; active = well fitted inhibition curve with a large enough effect; inconclusive = small, poorly fitted or top-dose-only effect, or effect the other way; inactive = flat fitted curve, though single readings scatter; tested in HEK293 cells; about a fifth of its hits are not listed in these tables; further: on the % scale 0 is the no-effect control and ±100 the full control effect; luciferase read-out
RE007 growth inh: less growth of the S. pombe RE007 Vpr strain | S. pombe RE007 Vpr strain, BacTiter-Glo ATP luminescence, 24 h; control for the full effect not named in the record | Potency, µM (titrated, usually from 92.2 µM), without a hit: at the highest dose activity change, negative = less growth | actives 0.21% (n = 360,000) | AID 651644; active = well fitted falling curve with a large enough effect; inconclusive = small, poorly fitted or top-dose-only effect; inactive = no such curve, though single readings can be large or run the other way;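 further: on the % scale 0 is the no-effect control and ±100 the full control effect; nearly all actives have a fitted effect of over 50% in size; the assay follows cell death caused by Vpr and the record does not say whether a fall means rescue or toxicity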
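Fission yeast RE007 carrying one integrated HIV-1 vpr copy, seeded at OD 0.01 in PMG+AL medium with 23 nL pinned compound. Grown 24 h at 30 degrees; viability read by BacTiter-Glo luminescence after 5 min.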
Cruzain Triton: blocks cruzain activity in presence of Triton detergent; Potency, µM, for the others: max response, negative = inhibition, usual class: inhibitors; purified cruzain, Z-FR-AMC fluorescence, 0.01% Triton; P25779; actives 0.43% (n = 200,000); AID 1478; active means well fitted curve in the direction sought with a large enough effect; inconclusive means small, poorly fitted or top-dose-only effect, or another doubt; inactive means no such curve, though single readings can be large; an effect the other way counts as inactive or inconclusive;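 further: plate controls were neutral wells for no effect and buffer without enzyme for full effect; nearly all actives have a fitted effect of over 40% in size; top concentration of the series not given in the record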
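Detergent-containing arm of a paired screen for aggregation-based inhibition: 0.01% Triton X-100 present. Cruzain at 1.5 nM cleaved 2 uM Z-FR-AMC at pH 5.5 with 5 mM DTT; AMC fluorescence gain over 60 s measured activity.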
NS1 inh: influenza NS1 inhibition; actives 0.4% (n = 270,000); Potency, µM (doses to about 46.1 µM), for the others: at the highest dose activity, positive = more growth; S. cerevisiae slowed by influenza A NS1, growth recovery by OD600; further: actives are rising curves; nearly all actives have a fitted effect of over 50% in size
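In this qHTS, NS1 from influenza A is expressed in budding yeast, where it slows growth. Cells are switched from glucose to 2% galactose medium (pH 6.0, -URA), treated with compound, and growth recovery is read at OD600.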
2A StopGo: lowers the luciferase signal of an FMDV 2A StopGo reporter; AID 1159524; human cells with a luciferase reporter of 2A StopGo recoding; control for the full effect not named in the record; actives 1.2% (n = 410,000); Potency, µM (titrated, usually from 57.9 µM), for the others: at the highest dose signal change, negative = less light; active = well fitted falling curve with a large enough effect; inconclusive = small, poorly fitted or top-dose-only effect; inactive = no such curve, though single readings can be large or run the other way; tested in HEK293T cells; further: on the % scale 0 is the no-effect control and ±100 the full control effect; nearly all actives have a fitted effect of over 45% in size; luciferase light after 4 h
Active calls of the source: *; ? = inconclusive; · = not tested or not shown; [ ] = remark or other dose. Unless noted, the call rests on the fitted dose curve; in most records, active means well fitted rising curve with a large enough effect; inconclusive means small, poorly fitted or top-dose-only effect; inactive means no such curve, though single readings can be large or run the other way. Potency means the concentration at half of the fitted maximal effect.

Values run as follows: SARS PLpro yeast	Cruzain inh noDet	Lassa entry inh	MARV entry inh	RE007 growth inh	Cruzain Triton	NS1 inh	2A StopGo
COCc1ccc(CN2CCCCC2C(=O)Nc2ccc(Oc3ccccc3)nc2)o1 (configuration not stated)
  -4.2%	·	-10.8%	-1.1%	-14.6%	·	12.2%	-12.4%
CCN1CCN(C(c2ccccc2)c2nnnn2Cc2ccc3c(c2)OCO3)CC1 (configuration not stated)
  0.9%	·	·	·	21.8%	·	-1.6%	8.1%
CCOc1cc(C(=O)O/N=C(\N)c2ccc([N+](=O)[O-])cc2)cc(OCC)c1OCC
  -0.2%	2.8%	-13.3%	?	6.7%	-1.0%	14.6%	2.4%
O=C(O)c1c(-n2cccc2)sc2c1CCCC2
  -0.3%	·	-4.8%	4.4%[46.1 µM]	2.9%	·	-0.8%	-17.5%
O=[N+]([O-])c1cc(S(=O)(=O)NC2=NCCCCC2)ccc1Cl
  2.8%	·	1.9%	7.5%[46.1 µM]	-10.2%	·	·	21.0%
Cc1ccc(C2Nc3ccccc3C(=O)N2Cc2ccco2)cc1 (configuration not stated)
  3.0%	-7.3%	4.8%	?	25.3%	-4.1%	-40.8%	-8.2%
Cc1ccc(CCNC(=O)c2ccc3c(c2)N(Cc2cc(C)ccc2C)C(=O)c2ccccc2S3=O)cc1 (configuration not stated)
  ·	10.8%	5.1%[46.1 µM]	9.0%[46.1 µM]	·	1.3%	·	-20.2%
COc1ccc(CCNC(=O)c2c(C)nn(-c3ccccc3)c2Cl)cc1OC
  -0.6%	·	·	-6.2%[46.1 µM]	6.2%	·	-4.8%	?
C=CCc1cccc2cc(C(=O)N(C)C)c(=O)oc12
  -4.9%	-3.6%	0.0%	0.3%	11.9%	-0.9%	1.9%	·
Cc1cc(C(=O)N/N=C2\CC(=O)CC(C)(C)C2)c(C)n1-c1ccccc1
  -3.0%	2.9%	19.7%	2.91µM*	14.9%	1.8%	?	0.0%
Cc1cc(C)cc(N2CCCn3c2nc2c3c(=O)n(CC(=O)OCc3ccccc3)c(=O)n2C)c1
  5.0%	-4.1%	?	?	-11.8%	-0.3%	-55.7%	-0.3%
Cc1ccc(NC(=O)CS(=O)CC(=O)N2CCN(C3CCCC3)CC2)cc1 (configuration not stated)
  2.2%	·	?	-4.0%[46.1 µM]	-15.0%	·	3.5%	6.2%
COc1ccccc1CCNCc1cccc(C(F)(F)F)c1
  -5.3%	·	·	·	1.1%	·	1.3%	3.9%
CCCC(=O)C1=C(O)C(C(=O)OC)C(C)(C)CC1=Nc1ccc(N)cc1 (configuration not stated)
  6.9%	-4.3%	-17.3%	22.0%	7.5%	-2.4%	-1.0%	2.6%
Nc1ccccc1Nc1cc(-c2ccccc2)nn1-c1cccc(Cl)c1
  -12.0%	?	-21.2%	?	-14.4%	-2.6%	18.6%	1.2%
COc1ccc(S(=O)(=O)N2CCN(C)CC2)cc1
  0.7%	·	·	·	12.9%	·	?	-7.4%
CCCc1ccc(Oc2cc(NN3CCCCC3)c([N+](=O)[O-])cc2[N+](=O)[O-])cc1
  -0.7%	·	·	·	-21.4%	·	6.1%	-7.2%
COc1ccccc1CNc1ncnc2c1c(-c1ccccc1)cn2-c1cccc(C)c1
  ·	?	-14.1%[46.1 µM]	·	·	1.3%	·	?
CN(C(=O)c1nc(-c2ccccc2)n(-c2ccccc2)n1)C1CCS(=O)(=O)C1 (configuration not stated)
  -3.0%	·	-3.2%	1.1%	6.1%	·	0.5%	-1.9%
CC1=CC(=C2C(=O)NC(=S)NC2=O)C=C(C(F)(F)F)N1C
  -1.0%	-2.0%	-0.3%	-6.8%	13.2%	-1.3%	-0.1%	1.9%
COCCN(C(=S)Nc1cccc(C)c1C)C(C)c1ccco1 (configuration not stated)
  3.8%	·	6.4%[46.1 µM]	-20.2%[46.1 µM]	7.7%	·	·	10.0%
O=C(c1ccccc1)c1cccc(NC(=O)c2ccco2)c1
  -8.0%	7.2%	18.2%	-4.8%	?	-0.9%	-106.8%	33.9%[activator]
COc1ccccc1Nc1nc(N)nc(CSc2nncn2C)n1
  -1.7%	4.6%	16.2%	-1.6%	6.6%	5.2%	-3.5%	42.1%[activator]
CC(C)[C@H](NC(=O)c1ccccc1)C(=O)OCc1nc2scc(-c3ccccc3)c2c(=O)[nH]1
  12.2%	?	?	0.6%	11.7%	-5.9%	24.7%	?
Cc1cccc(N(C)S(=O)(=O)c2cc(-c3cnc(C4CC4)o3)ccc2C)c1
  ·	?	?	·	·	-6.1%	·	?
O=C(/C=C/c1ccccc1)NC1CCSC1=O (configuration not stated)
  -31.8%	13.8%	21.7%	-19.2%	-6.5%	-1.5%	-0.5%	36.7%[activator]
COc1ccccc1CNCC(=O)Nc1cc(S(=O)(=O)N2CCOCC2)ccc1Cl
  2.9%	·	?	?	-0.7%	·	·	25.1µM*
Cc1cccc(-n2cc(-c3ccccc3)c3c(N4CCC(C)CC4)ncnc32)c1
  ·	7.5%	0.9%[46.1 µM]	·	·	-0.3%	·	-20.9%
CC1(CCc2ccccc2)NC(=O)N(CC(=O)Nc2ccc(S(N)(=O)=O)cc2)C1=O (configuration not stated)
  0.6%	·	-1.6%	0.2%[46.1 µM]	0.4%	·	·	-2.0%
OC(CNCc1ccncc1)c1ccccc1 (configuration not stated)
  3.8%	·	-3.4%	?	3.2%	·	3.2%	7.1%
CS(=O)(=O)Nn1cnc2ccccc2c1=O
  -0.4%	1.0%	-14.8%	?	6.3%	-0.8%	-1.0%	0.0%
COc1ccc2nc(C)cc(N3CCOCC3)c2c1
  5.8%	-8.2%	8.9%	4.4%	-12.5%	-2.0%	-3.4%	-18.2%
Fc1ccc(Oc2nnnn2-c2ccccc2)cc1
  0.0%	·	·	-1.9%[46.1 µM]	-19.6%	·	1.8%	12.8%
O=C1C2CCN(CC2)C1Cc1ccccc1O (configuration not stated)
  -4.5%	9.2%	-0.6%	1.4%	-17.0%	2.7%	-6.6%	-16.9%
CC(=O)C1C(c2ccc(Br)cc2)c2c(noc2C)CC1(C)O (configuration not stated)
  1.1%	·	0.9%[46.1 µM]	?	5.4%	·	0.9%	-13.1%
Clc1ccc(COn2c(-c3ccc(Cl)cc3)nc3ccccc32)cc1
  -23.0%	-4.6%	-43.1%	?	-12.6%	-2.8%	-13.1%	-21.8%
O=C(c1ccco1)N1CCN(C(=S)NCc2ccc(F)cc2)CC1
  ?	·	18.9%	12.1%	6.1%	·	4.2%	-9.9%
CCOC(=O)c1sc(NC(=O)CCN2CCOCC2)c(C(=O)OCC)c1C
  -2.4%	20.4%	5.2%	19.1%	-5.8%	-3.7%	-16.2%	10.8%
COc1ccc2ccc(Oc3ncccn3)cc2c1
  10.4%	1.7%	4.5%	?	-20.7%	-2.6%	-4.5%	37.1%[activator]
CNC(=O)C1CCN(C(=O)N2CC(C)Oc3ccc(Cl)cc32)CC1 (configuration not stated)
  ·	-18.5%	?	·	·	-6.5%	·	-2.0%
CC1CCCCN1S(=O)(=O)c1cccc2cccnc12 (configuration not stated)
  -2.9%	-13.3%	·	·	3.6%	-0.1%	-58.0%	1.4%
O=C(NCc1ccc(F)cc1)c1c(O)c2cccc3c2n(c1=O)CCC3
  0.1%	-8.4%	18.5%	19.7%	14.7%	-0.8%	7.7%	-13.8%
CCC(CC)C(=O)Nc1ccc(C(=O)Nc2cc(C)on2)cc1
  1.9%	·	0.7%	9.4%[46.1 µM]	35.6%	·	·	8.1%
Cc1ccc2c(c1)cc(CN(Cc1cccnc1)C(=O)c1ccccc1)c1nnnn12
  -1.0%	·	-0.2%[46.1 µM]	-1.9%[46.1 µM]	-1.8%	·	8.9%	8.0%
COc1ccc(CNc2ncnc3c2cnn3-c2ccc(Cl)cc2)cc1
  ·	-4.6%	29.7%[46.1 µM]	·	·	1.4%	·	7.1%
FC(F)(F)c1cccc(CNC2c3ccccc3-c3ccccc32)c1
  -2.3%	·	-0.8%	?	3.8%	·	-1.0%	-26.4%
O=C(CSc1nc2cc(Cl)ccc2s1)c1ccco1
  -5.8%	-8.0%	1.6%	23.9%	-24.9%	-7.3%	-48.1%	63.0%[activator]
CCN1CCN(C(=O)CCc2nnc(CCc3c[nH]c4ccccc34)o2)[C@@H](C)C1=O
  -4.4%	·	·	·	1.2%	·	3.8%	36.4%[activator]
Cn1cnc([N+](=O)[O-])c1Sc1ncccc1N
  15.4%	-8.5%	-2.8%	8.1%	-15.3%	2.7%	5.9%	?
CS(=O)(=O)N1CCCC(C(=O)N2CCN(c3cccc(Cl)c3)CC2)C1 (configuration not stated)
  1.8%	·	7.1%	-16.5%[46.1 µM]	0.3%	·	2.9%	-7.4%
S=C1NCCOCCOCCOCCOCCNC(=S)N2CCOCCOCCN1CCOCC2
  0.4%	·	?	0.8%[46.1 µM]	-14.7%	·	-1.2%	7.9%
NC(=O)COc1ccc2c3c(c(=O)oc2c1)CCCCC3
  -4.4%	25.2%	21.3%	-0.4%	3.5%	?	-11.5%	13.5%
CCOc1ccc(CCNC(=O)c2ccc3c(c2)sc2nc(-c4ccc(F)cc4)cn23)cc1OCC
  ·	2.1%	·	2.51µM*	·	-4.8%	·	?
Cc1c(C2CC(=O)N(c3ccccc3)C2=O)[nH]n(-c2ccccc2)c1=O (configuration not stated)
  7.5%	?	-14.4%	-2.9%	-9.5%	-2.0%	16.8%	-0.1%
CC(c1nc2ccccc2n1Cc1ccccc1)N1CCCCC1 (configuration not stated)
  1.2%	·	-54.4%[46.1 µM]	?	?	·	2.2%	?
CCC(C)c1ccc(NC(=O)c2[nH]c(C)c(C(C)=O)c2C)cc1 (configuration not stated)
  -5.3%	·	-16.8%[46.1 µM]	?	-1.8%	·	9.1%	16.9%
CN(C)C(=O)c1ccc(-n2cnc3ccccc3c2=O)cc1
  -0.7%	·	9.3%[46.1 µM]	-15.3%[46.1 µM]	-6.8%	·	·	1.9%
CN(C)/C=N/c1cnc(C(=O)c2ccc(Cl)cc2)n1C
  -0.7%	?	?	-8.9%	-2.4%	-0.4%	-79.8%	24.2%
